Screens: PubChem BioAssay, Johns Hopkins Ion Channel Center
KCNQ2 block: KCNQ2 channel blockers in CHO-K1 cells – cell-based, FluxOR thallium flux, B-score, primary screen (AID 2156). 310,000 tested, 1.1% active. 20 min; hits give low values; only compounds with negative scores are shown here; some inactives read as strong as hits. B-score at 10 µM. O88943;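 active = fluorescence ratio B-score at most minus 3 library SDs, with starting brightness B-score within 2 library SDs, cut at about -5.5 in these data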
Target sequence (O88943 whole entry, looked up): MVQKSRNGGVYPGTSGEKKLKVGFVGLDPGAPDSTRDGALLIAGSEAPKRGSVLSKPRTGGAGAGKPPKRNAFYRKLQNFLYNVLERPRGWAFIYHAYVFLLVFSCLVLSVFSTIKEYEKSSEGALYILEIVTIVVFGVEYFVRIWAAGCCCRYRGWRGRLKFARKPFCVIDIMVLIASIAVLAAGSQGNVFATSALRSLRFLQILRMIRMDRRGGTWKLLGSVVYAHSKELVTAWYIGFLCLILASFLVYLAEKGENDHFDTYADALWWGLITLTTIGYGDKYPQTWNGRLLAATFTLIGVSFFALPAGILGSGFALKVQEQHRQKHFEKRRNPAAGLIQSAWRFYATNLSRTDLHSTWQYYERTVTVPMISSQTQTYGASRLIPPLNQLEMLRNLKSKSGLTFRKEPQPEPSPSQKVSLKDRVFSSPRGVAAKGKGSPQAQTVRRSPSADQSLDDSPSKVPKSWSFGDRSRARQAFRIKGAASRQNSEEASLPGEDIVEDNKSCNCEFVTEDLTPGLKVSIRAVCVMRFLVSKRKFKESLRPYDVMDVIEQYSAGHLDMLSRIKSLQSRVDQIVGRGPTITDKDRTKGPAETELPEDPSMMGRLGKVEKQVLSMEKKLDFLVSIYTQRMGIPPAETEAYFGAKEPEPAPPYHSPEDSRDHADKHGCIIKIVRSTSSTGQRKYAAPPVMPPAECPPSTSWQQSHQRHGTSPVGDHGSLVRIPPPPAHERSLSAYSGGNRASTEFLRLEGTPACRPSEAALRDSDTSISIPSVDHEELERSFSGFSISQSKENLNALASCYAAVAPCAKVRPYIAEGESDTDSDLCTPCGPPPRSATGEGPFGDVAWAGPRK
KCNQ2 block baseline: second read-out of KCNQ2 block, no call of its own (marks repeat the call); B-score; measured here: initial fluorescence intensity artifact check;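 brightness before thallium and not channel activity; 0 = typical well and far values either way flag optical interference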
Active calls of the source: *; i = inactive. Only part of the results is shown (hit frequency here may not be typical).

KCNQ2 block	KCNQ2 block baseline	mol
i	0.14	CN(C)S(=O)(=O)c1cc(NC(=O)CNCc2ccccc2)ccc1Cl
i	-0.79	CCc1nnc(NC(=O)CSc2nc3cccnc3n2Cc2ccccc2)s1
i	-1.09	Cc1ccc(C)c(N(CC(=O)Nc2ccccc2C(=O)NCc2ccco2)S(=O)(=O)c2ccccc2)c1
i	0.36	O=C(O)C1CCCCN1S(=O)(=O)c1ccc(Cl)s1 (stereo not drawn)
i	1.49	COC(=O)c1nnn(CC(=O)Nc2ccc(C)c(F)c2)c1C(=O)OC
i	0.23	Cc1ccc(C(=O)CSc2nnc(-c3ccco3)n2Cc2ccccc2)cc1
i	-0.47	Cc1sc2ncnc(N3CCN(c4ncccn4)CC3)c2c1C
i	0.5	CC(C)C(NS(=O)(=O)c1ccc2c(c1)C(C)(C)C(=O)N2C)C(=O)NCc1ccccc1Cl (stereo not drawn)

Grouped by structure, those above containing nitrogen in an aromatic ring
KCNQ2 block	KCNQ2 block baseline	mol
i	-0.79	CCc1nnc(NC(=O)CSc2nc3cccnc3n2Cc2ccccc2)s1
i	1.49	COC(=O)c1nnn(CC(=O)Nc2ccc(C)c(F)c2)c1C(=O)OC
i	0.23	Cc1ccc(C(=O)CSc2nnc(-c3ccco3)n2Cc2ccccc2)cc1
i	-0.47	Cc1sc2ncnc(N3CCN(c4ncccn4)CC3)c2c1C

More compounds follow:
KCNQ2 block	KCNQ2 block baseline	mol
i	-0.11	CCOC(=O)C1(Cc2ccccc2)CCCN(CCCn2cccn2)C1 (stereo not drawn)
i	2.81	COc1ccc(CCN2C(=O)CC(N3CCC(C(N)=O)CC3)C2=O)cc1OC (stereo not drawn)
i	0.49	CCN(CC(=O)NCc1ccc(Cl)cc1)C(=O)CCC(=O)c1ccc(F)cc1
i	-0.11	COc1ccc(NS(=O)(=O)c2ccc3c(c2)N(C(C)=O)CC(C)S3)c(OC)c1 (stereo not drawn)
i	0.51	COc1ccccc1-c1noc2ncnc(Nc3cccc(C)c3)c12
i	0.31	Nn1c(COc2ccccc2)nnc1SC(F)F
i	0.08	Cc1c(NC(=O)CN2C(=O)NC(C)(c3ccccc3Cl)C2=O)c(=O)n(-c2ccccc2)n1C (stereo not drawn)
i	1.91	N#C/C(=C\c1cccc(O)c1)C(=O)N1CCCCC1
i	1	O=C(CCNC(=O)c1ccc(Br)cc1)OCc1ccccc1Cl
i	-0.62	COc1ccccc1-c1nnc(SC(C)C(=O)O)n1-c1ccccc1 (stereo not drawn)
i	1.93	COc1cc(OC)cc(C(=O)Nc2cccc3ccccc23)c1
i	0.2	COc1ccc(S(=O)(=O)NCCN2CCOCC2)c(C)c1C
i	0.09	N#CC(Cc1ccc(OC(F)F)cc1)c1nc2ccccc2[nH]1 (stereo not drawn)
i	-0.78	CC(C)(C)NC(=O)CN1C(=O)/C(=C/c2ccccc2)SC1=S
i	-0.04	O=C(CN1CCN(c2ccccn2)CC1)Nc1ccc(F)cc1
i	-0.75	CC(Cc1ccccc1)C(=O)N1CCN(C)CC1 (stereo not drawn)
i	-0.21	O=C(NC1CCC1)C1CCC(=O)N(Cc2cccc(F)c2)C1 (stereo not drawn)
i	-0.47	CCOC(=O)C1=C(C)N(CCCC(=O)O)C(=O)NC1c1ccccc1 (stereo not drawn)
i	-1.64	CN(/C=C1/C(=O)CNC1=O)CCO
i	0.46	Cc1cc(N2CCCCC2)nc(-c2ccc(Br)cc2)n1
i	-0.37	O=[N+]([O-])c1ccc(Cl)c(/C=N/N2CCN(Cc3ccccc3)CC2)c1
i	-0.04	C=CCn1c(COc2cccc3cccnc23)nnc1SCC(=O)OC
i	0.53	CCOC(=O)c1ccc(COC(=O)c2ccc(-c3nnc(-c4ccccc4)o3)cc2)o1
i	-0.77	CC(C)C(=O)Nc1c2c(nc3ccccc13)N(C)CC2
-7.3*	0.69*	CCC(C)Sc1cccc(-c2nc3ccc(Cl)cn3c2NCc2ccccc2)c1 (stereo not drawn)
i	0.45	CCOC(=O)C1=C(O)/C(=C/c2cc(OC)c(OC)c(OC)c2)SC1=Nc1ccc(OC)cc1
i	-0.01	COc1ccc(C2c3c(C)nn(-c4ccccc4)c3NC(=O)N2c2ccccc2)cc1 (stereo not drawn)
i	0.67	Cc1ccc2cc(C#N)c(SCC(=O)N3CCCc4ccccc43)nc2c1C
-6.78*	-1.05*	Cc1ccc(NC(=O)N(Cc2ccco2)Cc2cc3cc(C)cc(C)c3nc2Cl)cc1
i	-2.8	CCOC(=O)C1(Cc2ccccc2C)CCCN(C(=O)c2ccoc2)C1 (stereo not drawn)
i	-1.71	COc1ccc(CN2C(=O)c3ccccc3C2C(=O)NC2CCCC(C)C2C)c(OC)c1 (stereo not drawn)
i	1.1	COc1ccc(N2C(=O)CSC2c2ccc(F)c(F)c2)cc1 (stereo not drawn)

Reprinted at random: 2 entries already listed
KCNQ2 block	KCNQ2 block baseline	mol
i	-0.11	CCOC(=O)C1(Cc2ccccc2)CCCN(CCCn2cccn2)C1 (stereo not drawn)
i	-0.79	CCc1nnc(NC(=O)CSc2nc3cccnc3n2Cc2ccccc2)s1

Continued.
KCNQ2 block	KCNQ2 block baseline	mol
i	-0.46	Cc1oc2ccc(OS(C)(=O)=O)cc2c1C(=O)OC(C)C
i	-1.22	COc1ccc(NS(=O)(=O)c2cccc(C(=O)NNC(=O)CNC(=O)c3ccc(C)cc3)c2)cc1
i	-1.34	Cc1ccccc1S(=O)(=O)Cc1ccc(C(=O)N2CCN(c3ncccn3)CC2)o1
i	1.07	C/C(CC(=O)Nc1ccc([N+](=O)[O-])cc1)=N\NC(=O)c1ccccc1O
i	1.79	COc1ccc(C(CCNCc2ccc(OC)c(OC)c2)c2ccc(F)cc2)cc1 (stereo not drawn)
i	1.65	Cc1ccc(-c2nnc(N3CCN(C(=O)CN4CCOCC4)CC3)c3ccccc23)cc1
i	-1.27	Cc1ccc(CN2CCN(C(=O)c3cccc4ccccc34)CC2)cc1
i	1.41	O=C(CCc1nc2ccccc2c(=O)[nH]1)OCc1ccc(Cl)cc1Cl

Arranged by value in KCNQ2 block baseline (ascending): three from the list above.
KCNQ2 block	KCNQ2 block baseline	mol
i	1.07	C/C(CC(=O)Nc1ccc([N+](=O)[O-])cc1)=N\NC(=O)c1ccccc1O
i	1.41	O=C(CCc1nc2ccccc2c(=O)[nH]1)OCc1ccc(Cl)cc1Cl
i	1.79	COc1ccc(C(CCNCc2ccc(OC)c(OC)c2)c2ccc(F)cc2)cc1 (stereo not drawn)

Further compounds follow:
KCNQ2 block	KCNQ2 block baseline	mol
i	1.26	CC1CCN(C(=O)c2ccc(N3C(=O)C4CCC(C)CC4C3=O)cc2)CC1 (stereo not drawn)
i	-1.06	CCOC(=O)CSc1n[nH]c(-c2cccnc2)n1
-6.59*	0.03*	CC1=C(C(=O)Nc2ccccc2)C(c2cccs2)C(C#N)=C(SCC#N)N1 (stereo not drawn)
i	-0.8	CC(Sc1nnc(-c2cccs2)n1-c1ccccc1)C(=O)NCc1ccco1 (stereo not drawn)
i	0.66	c1cc(Nc2ncnc3sc4c(c23)CCC4)ccn1
i	-2.66	COc1ccc(NC(=S)N2CCN(S(C)(=O)=O)CC2)cc1
i	0.32	COc1ccc2c(c1)C(=O)N(c1ccc(C)cc1)C(=O)C2
i	-0.22	CCn1cc(CCC(=O)NCc2ccc(F)cc2)c2ccccc21
i	-0.33	O=C(c1cc2nc(-c3ccco3)cc(C(F)(F)F)n2n1)N1CCN(c2ccccn2)CC1
i	0.75	O=C(Nc1ccc(OCC(F)(F)C(F)F)c(C(F)(F)F)c1)c1ccc(Cl)cc1
i	1.4	C=CCn1c(SCC(=O)c2c(N)n(C)c(=O)n(C)c2=O)nnc1-c1ccncc1
i	-1.59	FC(F)(F)c1nnc2sc(-c3ccco3)nn12
i	-0.18	COc1ccccc1CNC(=O)N[C@@H](Cc1ccccc1)C(=O)O
i	-0.51	Brc1ccc(-c2csc(N3CCOCC3)n2)cc1
i	1.85	O=C(CCn1c(=O)sc2ccccc21)Nc1ccon1
i	0.98	Cc1ccc(S(=O)(=O)NC(C)C(=O)N2CCOCCOCCOCC2)cc1 (stereo not drawn)

Compound profiles (already shown). Order of screens: KCNQ2 block, KCNQ2 block baseline
Profile of CC1CCN(C(=O)c2ccc(N3C(=O)C4CCC(C)CC4C3=O)cc2)CC1 (stereo not drawn) = i, 1.26
Profile of Cc1ccccc1S(=O)(=O)Cc1ccc(C(=O)N2CCN(c3ncccn3)CC2)o1 = i, -1.34
Profile of COc1cc(OC)cc(C(=O)Nc2cccc3ccccc23)c1 = i, 1.93
Profile of Brc1ccc(-c2csc(N3CCOCC3)n2)cc1 = i, -0.51
Profile of COc1ccc(CN2C(=O)c3ccccc3C2C(=O)NC2CCCC(C)C2C)c(OC)c1 (stereo not drawn) = i, -1.71

More compounds follow.
KCNQ2 block	KCNQ2 block baseline	mol
i	-1.3	OCCNCCCCOc1ccccc1F
i	-0.47	CCC(C(=O)OC)n1cnc2scc(-c3ccc(C)c(C)c3)c2c1=O (stereo not drawn)
i	0.15	CCOCCCNC(=O)c1c[nH]c2ccc(C)cc2c1=O
i	-0.18	O=C(NCCC1CCCCN1S(=O)(=O)c1ccccc1)C(=O)Nc1ccc(F)cc1 (stereo not drawn)
i	-1.04	O=C(CSc1nnc(Cc2ccccc2)n1-c1ccc(F)cc1)N1CCOCC1
i	-1.34	COCC1CCN(C(=O)c2ccc3oc(Cc4ccccc4)nc3c2)C1 (stereo not drawn)
i	-1.66	COc1ccc(/C=C/C(=O)OCc2cccc([N+](=O)[O-])c2)cc1
i	-0.41	O=C(CNC(=O)c1sc2ccccc2c1Cl)NC1CC1
i	-0.01	CC1(C)C2CC[C@]1(C)C(=O)N(CCCCN1CCN(c3ccccn3)CC1)C2=O
i	0.04	O=C(CCn1c(=O)oc2ccccc21)Nc1nc2ccccc2s1
i	-0.34	COc1ccccc1N1CCN(c2nc3c(C)cccn3c(=O)c2C=O)CC1
i	-0.08	Fc1ccc(Nc2nc(Oc3ccc4c(c3)OCO4)nc(N3CCOCC3)n2)c(F)c1
i	1.46	CCOC(=O)CNC(=S)NN(C)C
i	-0.03	CCOC(=O)c1cc(-c2ccc(C)cc2)n(CCC(=O)NC(C)CC)c1C (stereo not drawn)
i	-1.39	COc1ccc(CCNC(=O)CSc2nc(C)nc3sccc23)cc1OC
i	1.3	CCOc1ccc(NC(=O)CC2C(=O)N(C)C(=S)N2Cc2ccco2)cc1 (stereo not drawn)
i	-1.77	COc1ccc(/C=N/NC(=O)Cn2c(Cc3ccc(OC)c(OC)c3)nc3ccccc32)cc1
i	-0.44	Cc1cc(C)c2oc(=O)cc(CN3CCN(Cc4ccccc4)CC3)c2c1
i	-0.94	Cc1cccc(CN2CCC(Oc3ccc(C(=O)N4CCCCC4)cc3)CC2)c1
i	0.67	O=C(NCC(=O)N1CCCC1)c1cccs1
i	1.21	O=c1[nH]cnc2c1N1CCC2CC1
i	-0.07	CCCc1cnc(NCCNCC(O)COc2ccc(Cl)c(Cl)c2)nc1 (stereo not drawn)
i	-0.27	CCCN1CCN(c2ncnc3scc(C4COc5ccccc5O4)c23)CC1 (stereo not drawn)
i	-1.7	O=C(Nc1ccc(Cl)cc1)c1cc2nc(-c3ccco3)cc(C(F)(F)F)n2n1
i	-0.12	CCOc1ccc(-c2cccc(NC(=O)COc3ccccc3)c2)nn1
i	0.08	O=[N+]([O-])c1ccc(Sc2nccn2Cc2ccccc2)c([N+](=O)[O-])c1
i	-0.04	COC(=O)C(c1cc(OC)c(O)c(OC)c1)(N1CCNC(C)C1)C(F)(F)F (stereo not drawn)
i	4.73	O=C(/C=C/c1ccc(F)cc1)NCCCn1ccnc1
i	0.25	COc1ccc(Oc2cc(F)nc(N)n2)cc1
i	0.02	C=C(c1ccccc1C)[n+]1ccccc1
i	-0.95	CC(C)(C)c1ccc(N=C2SCC(=O)N2Cc2cccs2)cc1
i	0.41	COc1ccc(C(=O)NC(C(=O)N2CCc3ccccc32)C(C)C)cc1 (stereo not drawn)
i	0.21	O=C(Nc1cccc(Cl)c1)NC1CCS(=O)(=O)C1 (stereo not drawn)
i	-1.23	Cc1ccc(SCc2cn3ccccc3n2)cc1
i	-1.4	CCCc1nnc(NC(=O)C2CC(=O)N(CCc3ccc(F)cc3)C2)s1 (stereo not drawn)
i	1.99	Cc1nn(C)c(C)c1NC(=O)c1ccnn1C
i	0.84	Cc1noc(C)c1NC(=O)NCCN1CCN(Cc2ccccc2)CC1
i	1.69	O=C(O)CN1CCCC1=Nc1ccccc1
i	0.07	CC(C)COP(=O)(c1ccc(N(C)C)cc1)C(O)c1ccc(Br)cc1 (stereo not drawn)
i	-0.86	CCOC(=O)c1c(CSc2ccccc2)n(C)c2ccc(O)c(CN3CCN(C)CC3)c12
i	0.05	C(=C\c1ccccc1)/C=N/N1CCN(Cc2ccccc2)CC1
i	-1.47	CCCS(=O)(=O)N1CCN(C(=O)c2cccs2)CC1
i	-0.23	O=C(CCCc1nc(-c2ccccc2Cl)no1)NC1CCCCC1
i	-1.49	COc1ccc(CNC(=O)CN(C(=O)c2csnn2)c2ccc3c(c2)OCCO3)cc1
i	-0.89	CCN(C(=O)CSc1ncn[nH]1)C1CCCCC1
i	0.66	O=C(NCc1cccnc1)/C(=C\c1ccc(-c2ccc(Cl)c(Cl)c2)o1)S(=O)(=O)c1ccccc1
i	0.29	O=c1c2ccccc2[nH]c(=S)n1Cc1cccs1
i	-0.45	Cc1ccc(S(=O)(=O)n2nccc2-c2c(-c3ccc(Cl)cc3)noc2C)cc1
i	-0.72	COc1ccc(CNCc2ccc([N+](=O)[O-])cc2)cc1OC
i	1.11	COc1ccc(S(=O)(=O)N2CCN(C)CC2)cc1NC(=O)c1ccccc1F
i	-0.98	O=C(O)CNC(=O)CC12CC3CC(CC(C3)C1)C2
i	1.26	COc1ccc(CC(=O)Nc2ccc(S(=O)(=O)N3CCCCC3)cc2)cc1OC
i	-0.03	CC(=O)c1c(OC(=O)c2ccco2)c2ccccc2n1C
i	1.19	Cc1ccc(C)c(NC(=O)Cn2nc(C)c3ccccc3c2=O)c1
i	1.21	COc1ccc(N=C2S/C(=C\c3cccs3)C(=O)N2CC(C)C)cc1
i	-1.07	CC(=O)c1sc2c(c1OC(=O)c1ccc(Cl)cc1Cl)c(=O)n(-c1ccccc1)c(=S)n2-c1ccccc1
